From PubChem BioAssay
Mtb bLac sens: beta-lactam sensitization of Mtb H37Rv | M. tuberculosis H37Rv growth with meropenem, percent inhibition; hits of this screen are not shown here | inhibition, % at 25 µM | actives 0.27% (n = 330,000);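 active means about 74% or more and at least 40 points above the plate without the antibiotic, then above 30% in a dose series; inconclusive means first-round hits that could not be retested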;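 further: growth measured after seven days incubation then overnight dye step; 0% = bacteria only wells and 100% = bacteria with antibiotic; twin plates without the antibiotic show which effects depend on it; some results filed as inactive read as strong as hits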
* hit, by the source's call; ? = inconclusive. These rows are one share of the data. The share of hits here may be higher or lower than overall.

SMILES	Mtb bLac sens
O=C(CSc1nnc(-c2cccc(Br)c2)o1)N1CCNC1=O	-10
CCOc1ccccc1NC(C)C(=O)NC(=O)NC1CCCCC1 (stereo not given)	-2
O=C(c1ccccc1)N1N=C(C(F)(F)F)CC1(O)c1ccccc1 (stereo not given)	6
CC1CCN(C(=O)COC(=O)COc2ccccc2C#N)CC1	0
C#CCOCCOCCOCCNc1nc(N2CCN(C(=O)CCCCCCCCCCNC(=O)[C@@H](CCC(=O)O)n3cc(CCCCCN)nn3)CC2)nc(N2CCN(C(=O)CCCCCCCCCCNC(=O)[C@H](CO)n3cc(CCCSC)nn3)CC2)n1	3
CS(=O)(=O)N1Cc2ccccc2CC1C(=O)OCC(=O)NCc1ccccc1 (stereo not given)	-8
CC(CNC(=O)Cn1ccc(N)nc1=O)c1ccccc1 (stereo not given)	-5
O=C(NCC1CCCO1)c1cn(Cc2ccccc2)nc1-c1ccccc1 (stereo not given)	-9
CCOc1ccc(S(=O)(=O)N(CC)CC(=O)NCc2ccco2)cc1C	-23
Cc1ccc(C)c(NC(=O)COC(=O)c2nn(C)c(=O)c3ccccc23)c1	2
O=C(COC(=O)CCC(=O)c1ccc(F)cc1)NC1CCCCC1	-4
CCN(c1ccccc1)S(=O)(=O)c1ccc(C(=O)Nc2cccc(C)n2)cc1	-8
CCOC(=O)c1sc2nc(C)nc(N3CCN(S(=O)(=O)c4ccccc4)CC3)c2c1C	-3
CN(Cc1cccc(F)c1)C(=O)c1cc(S(=O)(=O)N2CCOCC2)ccc1N1CCCC1	-9
CC(=O)c1cccc(S(=O)(=O)N2CCC(C(=O)Oc3ccc(-c4nnco4)cc3)CC2)c1	-1
O=C(CCNC(=O)c1ccco1)Nc1cccc(C(F)(F)F)c1	3
CCOc1ncccc1C(=O)Nc1cc(S(=O)(=O)N2CCOCC2)ccc1OCC(F)(F)F	-8
O=C(Nc1ccc2c(c1)CCC2)c1cccc(OC(F)F)c1	-6
Cc1ccc(Cl)cc1NC(=O)COC(=O)CC1CCCCC1	-4
CCOC(=O)C1CCCCN1C(=O)/C(=C/c1ccc(OC)cc1)c1ccc(OC)c(OC)c1 (stereo not given)	-1
O=C(CCNS(=O)(=O)c1ccccc1F)NC1CCCCCC1	-9
C[C@H]1CCC(=O)N([C@H](CSc2ccc(Br)cc2)Cc2ccccc2)CC1	4
CN(Cc1ccccc1)C(=O)c1[nH]cnc1C(=O)Nc1cccc(Cl)c1	1
Cc1ccnc2nc(C(=O)OCC(=O)Nc3ccc([N+](=O)[O-])cc3Br)nn12	-3
O=C(CN1CCCC1c1cccs1)N1CCN(S(=O)(=O)c2cccc(F)c2)CC1 (stereo not given)	5
COc1cc(CCC(=O)OCc2ccccc2C#N)cc(OC)c1OC	7
COc1ccc(N(C)S(=O)(=O)c2cccc(C(=O)Nc3nnc(C)s3)c2)cc1	1
CN(CC(=O)Nc1cccc(F)c1)C(=O)Cn1c(=O)oc2ccccc21	-7
COC(=O)[C@]1(C)N[C@H](c2ccc(-c3cccc(Cl)c3)cc2)[C@@H]2C(=O)N(C)C(=O)[C@@H]21	-4
CCNC(=O)Cc1ccc(S(=O)(=O)N2CCOCC2)s1	3
CCN(C[C@H]1N[C@@](CC)(C(=O)OC)[C@H]2C(=O)N(Cc3ccccc3)C(=O)[C@@H]12)C(=O)c1ccc(C(C)(C)C)cc1	0
CCN(C(=O)COC(=O)CCC(=O)c1cccs1)C1CCCCC1	-2
CS(=O)(=O)c1ccc(NC(=O)c2ccc3c(c2)S(=O)(=O)N=C2CCCCCN23)cc1	4
CN(CC(=O)NC(=O)NC1CCCCC1)c1ccccc1	-15
CC(NC(=O)COC(=O)C12CC3CC(CC(O)(C3)C1)C2)c1ccccc1 (stereo not given)	-2
COc1ccc(CN(C)C(=O)C2CC(=O)N(c3ccc4c(c3)OCCO4)C2)c(OC)c1 (stereo not given)	-6
CC(=O)c1ccc(N2CCN(C(C)C(=O)Nc3ccc4c(c3)OCCO4)CC2)cc1 (stereo not given)	-2
COc1ccc(C(C)=O)cc1CS(=O)(=O)CC(=O)NCCc1c[nH]c2ccccc12	-1
C#CCOCCOCCOCCNc1nc(N2CCN(C(=O)CCCCCCCCCCNC(=O)[C@@H](CCC(=O)O)n3cc(CCCCCN)nn3)CC2)nc(N2CCN(C(=O)CCCCCCCCCCNC(=O)[C@H](CO)n3cc(CCCCCN)nn3)CC2)n1	0
COc1cccc(NC(=O)CN2CCCCCC2)c1	2
Cc1ccccc1NC(=O)Cc1nc(COC(=O)c2cccc(O)c2)cs1	-4
Cc1ccc(C(=O)Nc2ccc(Nc3ccccc3)cc2)cc1Br	3
COc1cc(/C=C/C(=O)N2CCC=CC2=O)cc(OC)c1OC	61
CSCCC(NC(=O)c1ccccc1)C(=O)OCC(=O)NCc1ccco1 (stereo not given)	-3
COc1ccccc1NCCC(=O)OCC(=O)Nc1ccccc1F	2
COc1cccc(CN(C)C(=O)CN2C(=O)NC(c3ccccc3)(c3ccccc3)C2=O)c1	-8
Cc1cccc(C(=O)NCC(=O)N(C)Cc2nc3ccccc3c(=O)[nH]2)c1	-5
CCCn1c(N)c(N(CCOC)C(=O)CCC2CCCCC2)c(=O)[nH]c1=O	-1
O=C(Nc1cccc(S(=O)(=O)N2CCOCC2)c1)c1ccc(Cl)nc1	1
O=C(COC(=O)C1CC1)NCCc1ccccc1	32
CS(=O)(=O)Cc1ccc(C(=O)NC2CCSc3ccccc32)cc1 (stereo not given)	2
Cc1c(NC(=O)C(C)Sc2nc(N)cc(=O)[nH]2)c(=O)n(-c2ccccc2)n1C (stereo not given)	1
COC(=O)c1c(C)[nH]c(C(=O)CN2C(=O)NC3(CCOc4ccccc43)C2=O)c1C (stereo not given)	-3
Cc1cccc(N2CCN(C(=O)COc3ccc4c(c3)CCC4)CC2C)c1 (stereo not given)	2
Cc1cc(C(=O)CN2c3cccc4cccc(c34)S2(=O)=O)c(C)n1C	-7
CC(C)CCNC(=O)CN(Cc1ccco1)C(=O)CCC(=O)Nc1nccs1	-3
COc1ccc(SCCN2CC[C@@H](C)CCC2=O)cc1	7
COc1ccc(NC(=O)Nc2ccc3c(c2)C(=O)N([C@@H](C)CO)C[C@@H](C)[C@@H](CN(C)S(=O)(=O)c2cccs2)O3)cc1	-6
CC(NC(=O)CN(C)CC(=O)Nc1ccc(Cl)c(C(F)(F)F)c1)c1ccccc1 (stereo not given)	6
COC(=O)c1c(-c2ccccc2OC)sc2ccccc12	7
The list continues:
SMILES	Mtb bLac sens
CC(NCC(=O)Nc1ccccc1C(=O)NC1CC1)c1ccc(S(C)(=O)=O)cc1 (stereo not given)	-1
Cc1ccc(NC(=O)CN(C)C(=O)c2cccc(S(=O)(=O)NCc3cccs3)c2)cc1	-3
Cc1nnc(NC(=O)CSc2nnc(C(C)NC(=O)c3ccccc3F)n2C)s1 (stereo not given)	-8
Cc1cccc(NC(=O)NNC(=O)c2ccccn2)c1	43
CNC(=S)Nc1ccc(N2CCCC2)c(S(=O)(=O)Nc2ccc(OC)cc2)c1	-5
O=C1CCCN1CCCNS(=O)(=O)c1cccs1	2
Cc1ccc2c(COC(=O)CNS(=O)(=O)c3ccccc3)cc(=O)oc2c1	-3
Cc1cc(C)c(C)c(S(=O)(=O)NC(C(=O)NCCc2ccco2)C(C)C)c1C (stereo not given)	0
Cc1ccc(NC(=O)CN2C(=O)NC(Cc3c[nH]c4ccccc34)C2=O)cc1 (stereo not given)	-8
C[C@H](CO)N1C[C@H](C)[C@@H](CN(C)S(=O)(=O)c2ccc(F)cc2)Oc2ccc(NC(=O)Nc3ccc(C(F)(F)F)cc3)cc2C1=O	95
CCC(=O)N(c1nnc(SCC(=O)NN2C(=O)NC3(CCC(C)CC3)C2=O)s1)C1CC1 (stereo not given)	-7
CCCC1(c2ccccc2)NC(=O)N(CC(=O)Nc2ccc3c(c2)OCCO3)C1=O (stereo not given)	0
CC(OC(=O)CC1CC2CCC1C2)C(=O)Nc1ccc(C(N)=O)cc1 (stereo not given)	9
O=C(CN1CCN(c2ccccc2O)CC1)Nc1cc(S(=O)(=O)N2CCCC2)ccc1Cl	-7
COc1ccc(N(CC(=O)N2CCC(C(N)=O)CC2)S(=O)(=O)c2ccccc2)cc1	0
CCSc1cc(N2CCCC2)nc(-c2ccc(Cl)cc2)n1	9
Cc1cc(C)c(NC(=O)COC(=O)COc2ccc3c(C)cc(=O)oc3c2)c(Cl)c1	3
CC1(C)C(/C=C/C=C/C=C/C=C2\N(CCCCS(=O)(=O)O)c3ccc4ccccc4c3C2(C)C)=[N+](CCCCS(=O)(=O)[O-])c2ccc3ccccc3c21	19
CNS(=O)(=O)c1ccc(C(=O)NCC(=O)NCCc2ccc3c(c2)OCCO3)cc1	0
O=S(=O)(c1ccc(N2CCN(Cc3ccccc3)CC2)nc1)N1CCCC1	1
O=C(COC(=O)c1ccc2c(c1)OCCO2)Nc1ccc(F)cc1F	-4
O=C(Cn1cnc2c(OCc3ccccc3)ncnc21)NCc1ccccc1	2
S=c1[nH]nc(COc2ccc(Cl)cc2)n1-c1ccc(Cl)cc1	-1
C=CCn1c(NC(=O)c2ccco2)nc2ccccc21	96
COc1ccccc1C(=O)NC(=O)CSc1nc2nc(C)cc(C)n2n1	1
O=[N+]([O-])c1ccc(Cl)cc1CN1CCCCCC1	-11
Nc1ccn(CC(=O)NCc2ccc3c(c2)OCO3)c(=O)n1	-2
Cc1ccc(OCC(=O)OCC(=O)Nc2ccc3c(c2)OCO3)cc1C	6
Cc1ccc(N2CC(C(=O)OCC(=O)Nc3cc(C)on3)CC2=O)c(C)c1 (stereo not given)	3
O=S(=O)(NCCN1CCOCC1)c1ccc2ccccc2c1	-2
O=C(Nc1ccc(Cl)c(S(=O)(=O)N2CCOCC2)c1)c1ccc2c(c1)OCO2	-1
Cc1ccc(C(=O)NCC(c2ccco2)N2CCCCC2)s1 (stereo not given)	-6
CC(=O)c1cccc(NC(=O)CSc2nc(C3CC3)nc3ccccc23)c1	0
CC(Sc1ccccn1)C(=O)Nc1ccc2c(c1)OCCO2 (stereo not given)	-5
Cc1c(Cl)cccc1NC(=O)CNC(=O)Cc1c[nH]c2ccccc12	-10
O=S(=O)(c1ccc(SCCOc2ccccc2Cl)nc1)N1CCCC1	6
CCOC(=O)N1CCN(S(=O)(=O)c2ccc3c4c(cccc24)C(=O)N3)CC1	?
CCN(CC(=O)NCc1cccs1)C(=O)c1cccc(S(=O)(=O)Nc2cccc(C)c2)c1	0
COc1cc(/C=C/C(=O)OCC(=O)c2ccc3c(c2)NC(=O)CO3)ccc1OC(F)F	2
CCCn1c(N)c(C(=O)CSc2nnc(C3CC3)n2Cc2ccccc2)c(=O)n(C)c1=O	1
CCCCOc1ccc(C(=O)NCC(=O)NCCCn2nc(C)cc2C)cc1	-6
COc1ccc([C@H]2Cc3cc(O)cc(O)c3C(=O)O2)cc1O	1
CCC(=O)c1cc(F)ccc1OCC(=O)Nc1ccc2c(c1)OCCO2	-7
CCc1ccc(S(=O)(=O)N2c3ccc(C)cc3C3CN(C)CCC32)cc1 (stereo not given)	-2
COc1ccc(OC)c(-c2nn(-c3ccccc3)cc2C(=O)N2CCc3ccccc3C2)c1	-1
O=C1C2CCc3ccccc3C2N1c1ccccc1 (stereo not given)	-1
C=C(C)Cn1c(CN(C)Cc2ccccc2)nc2c1c(=O)n(C)c(=O)n2C	-1
Oc1ccccc1N1CCN(C(c2ccccc2)c2ccccc2)CC1	-2
O=c1cc(-c2ccc(O)cc2)oc2c(C3O[C@H](CO)[C@@H](O)[C@H](O)[C@H]3O)c(O)cc(O)c12 (stereo not given in full)	-5
COC(=O)[C@]1(C)N[C@H](CN(C)S(=O)(=O)c2ccccc2)[C@@H]2C(=O)N(Cc3ccccc3)C(=O)[C@@H]21	-2
C=CC(=O)Nc1ccc(Nc2nc(NC3CCC(N(C)C)CC3)nc3c2ncn3C(C)C)cc1 (stereo not given)	-3
C#CCOCCOCCOCCNc1nc(N2CCN(C(=O)C([C@@H](C)O)n3cc([C@@H](N)CCCCN)nn3)CC2)nc(N2CCN(C(=O)[C@H](CCCCN)n3cc(CN)nn3)CC2)n1 (stereo not given in full)	6
COc1ccc(NS(=O)(=O)c2cc(NC(=O)CCNC(C)=O)ccc2N2CCCCC2)cc1	3
O=C(O)CCn1cc(-c2ccc(F)cc2)nc1-c1ccncc1	6
Cc1ccc(S(=O)(=O)N2CCC(C(=O)NCC(C)(C)N3CCOCC3)CC2)c(C)c1	0
COc1ccc(CNC(=O)CN(C)CC(=O)Nc2ccccc2Br)cc1	0
CCN(CC)C(=O)c1cccc(NC(=O)c2cc(C3CC3)nc3c2cnn3C(C)C)c1	0

Another view of 15 compounds above:
compound,Mtb bLac sens
CCC(=O)c1cc(F)ccc1OCC(=O)Nc1ccc2c(c1)OCCO2,-7
CCc1ccc(S(=O)(=O)N2c3ccc(C)cc3C3CN(C)CCC32)cc1 (stereo not given),-2
COc1ccc(OC)c(-c2nn(-c3ccccc3)cc2C(=O)N2CCc3ccccc3C2)c1,-1
O=C1C2CCc3ccccc3C2N1c1ccccc1 (stereo not given),-1
C=C(C)Cn1c(CN(C)Cc2ccccc2)nc2c1c(=O)n(C)c(=O)n2C,-1
Oc1ccccc1N1CCN(C(c2ccccc2)c2ccccc2)CC1,-2
O=c1cc(-c2ccc(O)cc2)oc2c(C3O[C@H](CO)[C@@H](O)[C@H](O)[C@H]3O)c(O)cc(O)c12 (stereo not given in full),-5
COC(=O)[C@]1(C)N[C@H](CN(C)S(=O)(=O)c2ccccc2)[C@@H]2C(=O)N(Cc3ccccc3)C(=O)[C@@H]21,-2
C=CC(=O)Nc1ccc(Nc2nc(NC3CCC(N(C)C)CC3)nc3c2ncn3C(C)C)cc1 (stereo not given),-3
C#CCOCCOCCOCCNc1nc(N2CCN(C(=O)C([C@@H](C)O)n3cc([C@@H](N)CCCCN)nn3)CC2)nc(N2CCN(C(=O)[C@H](CCCCN)n3cc(CN)nn3)CC2)n1 (stereo not given in full),6
COc1ccc(NS(=O)(=O)c2cc(NC(=O)CCNC(C)=O)ccc2N2CCCCC2)cc1,3
O=C(O)CCn1cc(-c2ccc(F)cc2)nc1-c1ccncc1,6
Cc1ccc(S(=O)(=O)N2CCC(C(=O)NCC(C)(C)N3CCOCC3)CC2)c(C)c1,0
COc1ccc(CNC(=O)CN(C)CC(=O)Nc2ccccc2Br)cc1,0
CCN(CC)C(=O)c1cccc(NC(=O)c2cc(C3CC3)nc3c2cnn3C(C)C)c1,0
